# gsp ag: agonists of gsp mutant (McCune-Albright syndrome); gsp mutant cells, cAMP HTRF, 30 min; control for the full effect not named in the record; Potency, µM (highest dose often 76.9 µM), without a hit: top-dose activation (cAMP increase), actives largely listed as activators; 340,000 tested, 0.13% active; AID 624287; active = well fitted activation curve with a large enough effect; inconclusive = small, poorly fitted or top-dose-only effect, or another doubt; inactive = no such curve, though single readings can be large or run the other way; cell line not stated here;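 further: phosphodiesterase inhibitor Ro 20-1724 added with compounds to block cAMP breakdown; potency means the concentration at half of the fitted maximal effect; nearly all actives have a fitted effect of over 60% in size; about a fifth of the inactives were tested at one dose only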
#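 Cells in DMEM/10% FBS with G418 were pretreated with compounds in DMSO plus […] (300 uM stock) for 30 min at 37C. cAMP was measured by HTRF (cAMP-d2 plus anti-cAMP antibody-K) after 30 min at room temperature.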
# ClpP mod: qHTS Assay for Activators of ClpP | purified B. subtilis ClpP, FRET peptide cleavage, 20 min | Potency, µM (series often up to 57.5 µM), for inactives: at the highest dose activity change, negative = active | 340,000 tested, 1.9% active | AID 651965, 2013; active = well fitted falling curve with a large enough effect; inconclusive = small, poorly fitted or top-dose-only effect; inactive = no such curve, though single readings can be large or run the other way; further: potency means the concentration at half of the fitted maximal effect; the source files actives as falling curves though it sought activators and does not explain the sign; nearly all actives have a fitted effect of over 65% in size; many hits overshoot -100%
# Target sequence (P80244 whole entry, looked up): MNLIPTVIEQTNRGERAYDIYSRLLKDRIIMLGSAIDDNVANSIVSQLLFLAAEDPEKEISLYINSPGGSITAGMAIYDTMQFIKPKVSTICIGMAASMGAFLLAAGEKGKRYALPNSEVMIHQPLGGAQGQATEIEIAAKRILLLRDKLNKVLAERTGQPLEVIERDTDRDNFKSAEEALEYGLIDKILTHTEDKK
#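 Buffer: 100 mM Tris/HCl pH8, 100 mM KCl, 0.05% low protease BSA, 2.5% glycerol, 0.01% Tween-20. ClpP 10 microg/mL final; 20 min RT; delta FRET normalized to ADEP and DMSO controls.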
# TRPML1 blocker: inhibitors of human TRPML1 channel. Q9GZU1. TRPML1-inducible cells, Ca2+ dye fluorescence, FDSS; hits give low values; inhibition of EC80 agonist-evoked calcium signal. activity change, negative = inhibition, % (test concentration not listed). 390,000 tested, 0.02% active. AID 624415; in the data active means activity change below about -50%; inconclusive means about -30% to -50%; inactive means above about -30%;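 further: stimulus is agonist 54-4 at its EC80 concentration; on the % scale 0 is the no-effect control and ±100 the full control effect; compound concentration not given in the record; the text of the record puts the active cut at -80%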
#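 TRPML1-DL cells, Tet-induced overnight (~16 h, 37 °C) at 1,500 cells/well, were loaded with Ca8 no-wash dye plus quencher for 45-90 min at room temperature. Compounds were pinned during FDSS kinetic reading; agonist 54-4 at EC80 (4 uM final) then added.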
# TRPV1 potentiator: potentiators of human vanilloid receptor 1 (TRPV1); 320,000 tested, 0.02% active; AID 540277; TRPV1-expressing cells, Fluo-8 calcium influx, capsaicin EC20 potentiation; host cell line not named in the record; control for the full effect not named in the record; potentiation, % at 8.33 µM; Q8NER1; active means potentiation above 80%; inconclusive means 30% to 80%; inactive means below 30%; further: 0% is about no effect
# Target sequence (Q8NER1 whole entry, looked up): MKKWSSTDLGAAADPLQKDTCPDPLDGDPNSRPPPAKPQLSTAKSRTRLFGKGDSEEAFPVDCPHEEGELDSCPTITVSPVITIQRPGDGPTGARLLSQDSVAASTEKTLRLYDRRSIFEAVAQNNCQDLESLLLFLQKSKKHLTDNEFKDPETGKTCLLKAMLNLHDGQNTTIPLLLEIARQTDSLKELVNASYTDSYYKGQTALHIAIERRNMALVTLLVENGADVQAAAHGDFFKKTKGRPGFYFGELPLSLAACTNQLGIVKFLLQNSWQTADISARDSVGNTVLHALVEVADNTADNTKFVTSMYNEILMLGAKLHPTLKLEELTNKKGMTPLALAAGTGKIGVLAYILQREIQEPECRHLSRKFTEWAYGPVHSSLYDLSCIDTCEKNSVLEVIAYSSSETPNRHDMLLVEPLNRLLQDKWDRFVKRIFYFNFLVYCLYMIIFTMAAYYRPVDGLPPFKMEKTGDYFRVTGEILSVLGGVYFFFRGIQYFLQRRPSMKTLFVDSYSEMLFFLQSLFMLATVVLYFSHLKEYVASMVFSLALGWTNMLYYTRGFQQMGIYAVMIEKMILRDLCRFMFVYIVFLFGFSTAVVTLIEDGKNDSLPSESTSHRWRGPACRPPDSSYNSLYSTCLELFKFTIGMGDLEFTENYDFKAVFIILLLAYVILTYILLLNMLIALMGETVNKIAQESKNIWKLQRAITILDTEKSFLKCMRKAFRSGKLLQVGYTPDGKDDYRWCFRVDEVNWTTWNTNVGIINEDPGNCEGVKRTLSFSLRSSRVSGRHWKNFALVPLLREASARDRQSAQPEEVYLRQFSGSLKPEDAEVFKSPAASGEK
#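 Cells expressing TRPV1 were dye-loaded with Fluo-8 and read kinetically: 10 s baseline, 3 min after compound (agonist portion), then 2 min after EC20 capsaicin (allosteric enhancer portion). Calcium-bound dye fluorescence at 480/520 nm.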
# Menin-MLL FL inh: inhibitors of human menin-MLL interaction, wild-type MLL peptide. 290,000 tested, under 10 active. FP activity change, % at 61.4 µM. Fluorescence polarization, fluorescein-MLL peptide displacement from menin; inconclusive = falling polarisation curve, or a change in total fluorescence; inactive = total fluorescence flat and polarisation flat or rising; no compound was filed as active; the % refers to the polarisation; negative = inhibition;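 further: % of control where 0% means no effect; inhibitors lower the polarisation; unlabelled MLL peptide was the positive control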
# Sfp inh: inhibitors of Bacillus subtilis Sfp phosphopantetheinyl transferase; Q9F4F7; Biochemical Sfp PPTase activity, qHTS; Potency, µM, for inactives: max response, negative = inhibition, hits mostly inhibitors; 310,000 tested, 3.5% active; AID 1490; active means well fitted inhibition curve with a large enough effect; inconclusive means small, poorly fitted or top-dose-only effect, or another doubt; inactive means no such curve, though single readings can be large or run the other way;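 further: the enzyme is Sfp with the accession as filed and its product quenches rhodamine fluorescence; potency means the concentration at half of the fitted maximal effect; 0% = enzyme reaction without inhibitor and -100% = no enzyme wells; top concentration of the series not given in the record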
#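 Sfp 15 nM + cpd, 15 min RT; start w/ rhodamine-CoA 5 uM, BHQ-2-YbbR 12.5 uM (final); 50 mM Hepes pH 7.6, 10 mM MgCl2, 0.01% NP-40, 0.01% BSA; read 525/598 nm at 0 and 30 min.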
# gsp antagonist: gsp mutant antagonism; gsp-mutant cells, cAMP HTRF, 30 min; control for the full effect not named in the record; Potency, µM (highest dose often 76.9 µM), inactives show at the highest dose activity change, negative = inhibition, most hits filed as inhibitors; 340,000 tested, 0.4% active; active = falling curve of any shape with a large fitted effect; inconclusive = falling curve, mostly with a smaller effect; inactive = flat or rising curve; cell line not stated here;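 further: intracellular cAMP measured with PDE inhibitor Ro 20-1724 present during compound exposure; potency means the concentration at half of the fitted maximal effect; on the % scale 0 is the no-effect control and ±100 the full control effect; nearly all actives have a fitted effect of over 65% in size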
#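 G418-selected cells were plated in DMEM/10% FBS for 16-24 h at 37C, then treated with compounds plus the PDE inhibitor […] (300 uM solution added) for 30 min at 37C. Intracellular cAMP was measured by HTRF after 30 min lysis at room temperature.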
# Numbers without * were called inactive; ? = inconclusive; . = not tested or not shown; & = joins results of further samples; [ ] = dose if it differs, or a comment.
# Screens in order – gsp ag	TRPV1 potentiator	Menin-MLL FL inh	ClpP mod	Sfp inh	gsp antagonist	TRPML1 blocker
O=C(c1ccc2c(c1)OCO2)N1CCN(c2ccccn2)CC1
    -27%	10	8.9	-17%	10%	3%	9
O=C(COc1ccccc1F)NNC(=O)c1ccc(N2CCCCC2)c([N+](=O)[O-])c1
    0%	-4	1.6	0.9%	4%	-23%	-6
O=C(CN(Cc1cccs1)C(=O)CSc1nnc(COc2ccccc2)o1)NC1CCCCC1
    13%	-3	0.2	-7.4%	-3%	-13%	-4
COc1cccc(OC)c1OCC(O)CN1CCN(c2ccc(F)cc2)CC1 (configuration not stated)
    -1%	18	-0.1	.	1%	8%	-18
CCN(CC)C(=S)SCC(=O)c1ccc(F)cc1
    3%	-3	2.5	-0.6%	4%	-17%	5
C[C@@H]([C@H](O)c1ccccc1)N(C)C(=S)Nc1ccccc1
    16%	-1	-3.7	-0.8%	12%	3%	-17
CCOC(=O)c1c(S(=O)(=O)NCC(=O)Nc2cc(C)ccc2OC)c(C)n(C)c1C
    13%	26	.	-3.5%&-0.3%	10%	2%	0&26
COc1ccc(-c2ncc(CN3CCC(CO)(Cc4cccc(OC)c4)CC3)cn2)cc1
    ?	2	?	-11%	14%	-8%	.
O=C(NCCCN1CCN(Cc2ccccc2)CC1)c1nnc(Cc2c(F)cccc2Cl)o1
    2%	2	4.1	-0.2%	14%	10%	-4
CCC(=O)Nc1nc(=S)ss1
    0%	3	12	0.1%	10µM*	1%[15.4 µM]	-2
CC(OC(=O)CN(C)S(=O)(=O)c1ccc(Cl)cc1)C(=O)Nc1ncc(Cl)cc1Cl (configuration not stated)
    -1%	6	1.4	-1.1%	19%	-22%	-9
CCOC(=O)c1ccc(N2C(=O)c3n[nH]c(C)c3C2c2ccc(OC)cc2OC)cc1 (configuration not stated)
    0%	-18	0.8	0.9%	6%	1%	-4
CCC(C)Cn1c(S(=O)(=O)O)nc2ccccc21 (configuration not stated)
    -3%	3	1.0	-2.6%	20%	6%	19
COC(=O)C1=CNC=C(C(=O)OC)C1c1ccc(Cl)cc1
    1%	1	-1.9	?	16%	-22%	0
COc1ccc(C(C)(C)C)cc1NC(=O)C1CC(=O)N(C2CCCC2)C1 (configuration not stated)
    -7%[15.4 µM]	.	.	23%	.	1%	18
CCc1cccc(CC)c1NC(=O)COC(=O)CC1c2ccccc2CCN1S(=O)(=O)c1ccccc1 (configuration not stated)
    -8%	1	-0.8	?	14%	-12%	24
Cc1cc2ncc(C(N)=O)cn2n1
    -13%[15.4 µM]	3	0.3	.	12%	4%	0
CS(=O)(=O)N1CCN(c2ccnc3cc(Cl)ccc23)CC1
    38%	-1	-2.7	.	20%	-1%	13
O=C(NCc1cccc(C(F)(F)F)c1)c1ccc2c(c1)OCCO2
    -8%	-13	4.5	.	14%	0%	16
Cc1[nH][nH]c(=O)c1C
    -5%	-6	.	1.0%	.	15%	7
Cc1cc(SCC(=O)OCC(=O)c2c(N)n(C)c(=O)n(C)c2=O)c(C)cc1Br
    2%[15.4 µM]	1	-1.5	0.2%	-8%	5%	-7
Cc1cc(NC(=O)CN2C(=O)NC(C)(CCc3ccccc3)C2=O)no1 (configuration not stated)
    -4%	-6	1.3	.	6%	6%	0
CCC(C(=O)Nc1ccccc1Cl)n1nc(C)c2c(C)n(-c3ccccc3)nc2c1=O (configuration not stated)
    ?	6	.	-0.3%	-3%	-27%	12
Cc1ccccc1NC(=S)NC1(C)CCS(=O)(=O)C1 (configuration not stated)
    -32%[inhibitor]	10	8.1	-4.1%	2%	3%	9
COc1ccccc1C(CNC(=O)c1cccc(S(=O)(=O)Nc2ccc(C)cc2)c1)N(C)C (configuration not stated)
    -28%	4	.	-1.1%	-6%	-1%	9
O=C(COc1ccc2c3c(c(=O)oc2c1)CCC3)Nc1ccc(CN2CCOCC2)cc1
    10%	-11	.	4.2%	4%	2%	3
CCC(C(=O)NC1CCCCCC1)n1nc(C)n2c(cc3occc32)c1=O (configuration not stated)
    ?	-1	1.5	-3.4%	3%	11%	-16
CC(=O)NC(CCCCNC(=S)NC1CCCCC1)C(=O)O (configuration not stated)
    -6%[15.4 µM]	1	-1.1	.	16%	6%	5
CC1CCc2cc(F)ccc2N1C(=O)CSc1nnc2c(n1)[nH]c1ccccc12 (configuration not stated)
    0%[15.4 µM]	2	1.6	.	-2%	-25%	-17
CCOc1ccc(/C=N/NC(=O)c2[nH]ncc2Br)c(O)c1
    -17%	0	3.4	.	21%	-23%	7
O=C(O)c1ccc(/C=N/NC(=O)c2cc(-c3ccc4c5c(cccc35)CC4)n[nH]2)cc1
    -25%	3	0.2	.	11%	-6%	-7
CC(=O)c1ccc(NS(=O)(=O)c2ccc(N/C=C/C(=O)c3ccc(F)cc3)cc2)cc1
    -7%	-5	7.8	-4.2%	15%	-18%	-1
COc1cccc(NC(=O)N2CCCC(C(=O)NC3CCCCC3C)C2)c1 (configuration not stated)
    2%[15.4 µM]	2	6.2	.	11%	-8%	-9
CCOC(=O)c1cnn(Cc2ccc(C)cc2)c1N
    -40%	30	-0.5	-4.9%	17%	8%	10
CC(C)(C)C(O)(CC#CCN1CCCC1)c1ccccc1 (configuration not stated)
    13%[15.4 µM]	-2	0.8	.	0%	.	30
O=S(=O)(c1ccc(OCC(O)CN2CCC(Cc3ccccc3)CC2)cc1)N1CCOCC1 (configuration not stated)
    -25%	.	1.6	-0.8%	12%	4%	-4
COc1cc(OC)nc(Oc2ccccc2C(=O)Oc2ccc(Cl)cc2)n1
    -17%	11	2.2	-0.4%	15%	-24%	-19
COc1ccc(Cl)cc1N1CC(c2nc3ccccc3[nH]2)CC1=O (configuration not stated)
    12%	5	0.5	-2.3%	8%	-4%	-2
Cc1ccc(S(=O)(=O)N(C)c2ccc(OCC(=O)OCc3cccc(Br)c3)cc2)cc1
    -17%	.	.	-0.6%	.	-7%	-7
Cc1cnc(C(=O)OCC(=O)N2CCC(C)CC2)cn1
    17%[15.4 µM]	.	.	0.0%	.	14%	13
CN(CC(=O)Nc1ccc(F)c(F)c1F)C(=O)C1=COCCO1
    -41%[inhibitor]	-1	.	-0.3%	8%	0%	12
Cn1c(N)c(C(=O)CSc2nnnn2-c2ccccc2)c(=O)n(C)c1=O
    25%	-13	-0.4	1.4%	8%	-17%	5
Cc1ccccc1SCC(=O)OCC(=O)NCCNC(=O)COC(=O)CSc1ccccc1C
    3%[15.4 µM]	4	.	.	.	1%	10
CCOC(=O)c1ccc(N2CCN(c3ccccc3F)CC2)c(NC(=O)Nc2cccc(OC)c2)c1
    -52%[inhibitor]	1	1.6	25µM*	20%	-2%	19
COc1ccc(NC(=O)NNC(=O)c2cc3ccccc3cc2O)cc1
    -3%	9	2.9	-3.0%	-7%	-3%	22
COC(=O)C(CCSC)NC(=O)c1cc2c(n(-c3ccccc3)c1=O)CC(C)(C)CC2=O (configuration not stated)
    4%	-39	2.3	4.0%&-25%	14%	0%	-1&10
O=C(O)C(C(=O)Oc1ccccc1)C(C(=O)O)C(=O)Oc1ccccc1 (configuration not stated)
    10%	-2	.	-2.1%	.	5%	-8
COc1ccccc1-n1c(SCC(=O)Nc2cc(C)on2)nc2c(c1=O)SCC2
    -6%	20	2.8	0.3%	8%	2%	-7
COc1cccc(CN2CCN(CCc3ccccc3)C(CCO)C2)c1OC (configuration not stated)
    19%	-3	0.5	0.5%	4%	11%	7
CC(C)OCCCNC(=O)c1ccncc1
    -20%	7	-2.5	-0.6%	-13%	0%	-17
Cc1ccc(C(=O)N/C(=C\c2cccs2)C(=O)NCCc2ccccn2)cc1C
    -20%[15.4 µM]	7	2.5	.	2%	-7%	-24
CCCNC(=O)c1ccc(N2CCC3(CC2)CC(c2cccc(Br)c2)=NO3)c(NC(=O)c2ccccc2)c1
    .	22	.	?	.	-5%	-6
CC12CCCC(CC(=O)O)(C1)NC(=O)C2 (configuration not stated)
    25%	.	.	.	.	9%	-4
O=C(COC(=O)c1ccc(Cl)cc1O)Nc1cccnc1Cl
    0%[15.4 µM]	-4	2.0	.	13%	4%	-7
O=C(O)c1ccc(N2C(=O)c3ccccc3C2=O)cc1[N+](=O)[O-]
    ?	.	.	-5.8%	.	.	10

# Shown with tabs: part of the list above
Compound	gsp ag	TRPV1 potentiator	Menin-MLL FL inh	ClpP mod	Sfp inh	gsp antagonist	TRPML1 blocker
CC(C)OCCCNC(=O)c1ccncc1	-20%	7	-2.5	-0.6%	-13%	0%	-17
Cc1ccc(C(=O)N/C(=C\c2cccs2)C(=O)NCCc2ccccn2)cc1C	-20%[15.4 µM]	7	2.5	.	2%	-7%	-24
CCCNC(=O)c1ccc(N2CCC3(CC2)CC(c2cccc(Br)c2)=NO3)c(NC(=O)c2ccccc2)c1	.	22	.	?	.	-5%	-6
O=C(O)C(C(=O)Oc1ccccc1)C(C(=O)O)C(=O)Oc1ccccc1 (configuration not stated)	10%	-2	.	-2.1%	.	5%	-8
O=C(COC(=O)c1ccc(Cl)cc1O)Nc1cccnc1Cl	0%[15.4 µM]	-4	2.0	.	13%	4%	-7

# Ordered by the number under gsp ag (lowest first): 3 of the compounds above.
molecule | gsp ag
CC(C)OCCCNC(=O)c1ccncc1 | -20%
CCOc1ccc(/C=N/NC(=O)c2[nH]ncc2Br)c(O)c1 | -17%
CCc1cccc(CC)c1NC(=O)COC(=O)CC1c2ccccc2CCN1S(=O)(=O)c1ccccc1 (configuration not stated) | -8%

# Compounds were not picked by outcome; about 4.9% have a hit in one of these screens.
